Compound activity (PubChem BioAssay)
KSHV LANA nucl: LANA-nucleosome interaction inhibition. 51,000 tested, 0.3% active. z-score (no concentration beside the values). AID 720717. FITC-LANA1-23 / chicken nucleosome fluorescence polarization; active compounds read low;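 active = both repeat wells score below -2 in polarization z-score versus plate sample wells, excluding overly bright wells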;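 also: 100 nL library stock added to about 30 µL; numbers are from one replicate; some results filed as inactive read as strong as hits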
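System – purified chicken nucleosomes with FITC-labelled LANA N-terminal peptide (1-23) · Amount – 240 nM purified chicken nucleosomes (480 nM peptide binding sites), final · Also added – 50 nM FITC-LANA1-23 probe · Medium – TEN-BT buffer, pH 7.5 · Incubation – compound with peptide–nucleosome mix 10–45 min at room temperature · Detection – fluorescence polarization, ex 480 nm, em 535 nm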
Ab BasE inh: blocks the Acinetobacter baumannii siderophore enzyme BasE; 84,000 tested, 0.1% active; AID 485350; purified BasE, fluorescence polarization binding displacement; inhibition, % (no concentration beside the values);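 active = both replicates above 25% with normal brightness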;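 also: 0% = negative plate control signal and 100% = positive plate control signal; stock transfer was 100 nL into about 30 µL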
An asterisk follows results filed as active; nt = no result given; & = joins results of further samples. Only part of the results is shown; the hit share may differ from the screen's.

SMILES	KSHV LANA nucl	Ab BasE inh
Cc1ccc(C(CNC(=O)COc2ccccc2)N2CCN(C)CC2)cc1 (stereo not given)	-0.4	0.5
C=CCCOc1ccccc1C(N)=O	0.047	0.8
CNC(=O)N1CCC(C(=O)c2c(C)c(C)c(C)c(C)c2C)CC1	0.76	nt
O=C(O)c1cccc(NC(=O)c2nccnc2C(=O)O)c1	nt	1.0
CN1C(=O)Cc2cc(S(=O)(=O)CCC(=O)N3CCN(Cc4ccc5c(c4)OCO5)CC3)ccc21	nt	-1.2
C1CCC2(CC1)C1=C(CCCC1)Nc1nnnn12	0.45	2.4
FC(F)(F)c1cc(C(F)(F)F)c2ccc(Cl)nc2n1	0.31	nt
S=c1n(CN2CCCC2)nc2sc3ccccc3n12	nt	3.0
COc1cccc(CSc2nnc(Cc3cccs3)n2C2CCCCC2)c1	nt	-0.2
O=C1CC(c2ccccc2)Cc2c1cnn2-c1nc2ccccc2[nH]1 (stereo not given)	-0.19	-0.9
Cc1ccc(-c2nn(-c3ccccc3)cc2C(=O)Nc2ccccc2C)o1	nt	2.6
Cc1nn(-c2ccccc2)c(C)c1/C=N/N=C1\C(=O)Nc2ccccc21	nt	0.3
CSCCC(C(=O)O)N1C(=O)c2ccccc2C1=O (stereo not given)	nt	-0.8
COc1ccc(S(N)(=O)=O)cc1C(=O)N1CCCC1	nt	-2.8
COc1ccc(CSc2nnc(CSc3cccs3)n2C)cc1	nt	2.5
O/N=C1\CCCc2nn(-c3ccc(Cl)c(Cl)c3)nc21	0.15	-0.4
CCOc1ccc(/C=C2\SC(=O)N(CCNC(=O)c3c(CC)noc3C)C2=O)cc1OC	nt	0.9
CNc1ccccc1C(=O)OCc1ccc(C(=O)OC)cc1	2.1	-4.7
CCCC(O)C(C)(C)CO (stereo not given)	nt	1.5
CN1C(=O)/C(=C\c2ccc(C(=O)N3CCOCC3)cc2)SC1=S	0.49	2.7
Cn1c(=O)c2c(ncn2C)n(C)c1=O	0.041&-0.67	-2.2
Cc1ccc2nc(-c3cccc(NC(=O)COc4ccccc4)c3C)oc2c1	-0.39	6.8
Cc1ccc(C(=O)OCC(=O)N2C(C)CCCC2C)s1 (stereo not given)	nt	-1.3
CCCCNC(=S)NN1C(=O)NC(C)(c2cccc(OC)c2)C1=O (stereo not given)	nt	1.8
CC(c1ccccc1)n1c(Cn2ncc3ccccc3c2=O)n[nH]c1=S (stereo not given)	1.2	0.5
O=C(O)CCc1nc(-c2ccccc2)c(-c2ccccc2)o1	-0.21&0.58&-1.2&-0.11	-0.5&1.0
O=C(COc1ccc2ccccc2c1)NC1CCC(O)CC1 (stereo not given)	nt	1.1
COc1ccccc1OCC(=O)Nc1nc(-c2ccc(S(=O)(=O)N3CCCC3)cc2)cs1	nt	1.2
CC(C)n1cnnc1SCC(=O)NC(=O)c1cccn1C	nt	0.5
COc1ccc(C(C)(C)C)cc1S(=O)(=O)N1CCN(c2ccccc2)CC1	-0.58	1.4
CCN1CCN(C(=O)/C=C/c2cn(-c3ccccc3)nc2-c2cccnc2)CC1	nt	-3.9
Cc1ccc(C)c(NC(=O)CSc2ncccn2)c1	-0.58	0.1
COc1ccccc1CC(=O)NCc1nn(-c2ccccc2)nc1C	nt	3.1
COc1cccc(NC(=O)C(Sc2nnc3n2CCCCC3)c2ccccc2)c1 (stereo not given)	nt	2.0
Cc1ccc(P(=Nc2cc(Cl)ccc2Cl)(N2CCOCC2)N2CCOCC2)o1	nt	3.5
Cc1ccc(CN(C)CC(O)COC(c2ccccc2)c2ccccc2C)o1 (stereo not given)	nt	-0.8
COc1ccc(NC(=O)C2CCN(C(=O)C3CC(=O)N(c4ccc(C)cc4)C3)CC2)cc1 (stereo not given)	0.5	0.7
Cc1cc(C(=O)COc2cc3ccccc3cc2C(=O)N2CCOCC2)c(C)n1Cc1ccco1	nt	1.2
CN(C)c1cccc(C(=O)OCc2c(F)cccc2Cl)c1	nt	2.7
O=c1[nH]c2c(s1)C1c3c(ccc4ccccc34)OCC1CS2 (stereo not given)	0.43	2.8
CCCCC(=O)NC1=NC(=O)C(C)(C)S1	0.1	-0.6
O=C(O)c1ccc(N2C(=O)CSC2=S)cc1	nt	-0.4
CC(Nc1nc2ccccc2s1)C(=O)NN (stereo not given)	nt	1.9
O=C(CC1(O)OC(c2ccccc2)=CC1=O)c1ccccc1 (stereo not given)	-0.44	5.1
Cc1ccc2c(c1)N(CC(=O)N(Cc1cccnc1)C1CCCC1)C(=O)C(C)O2 (stereo not given)	-0.79	-2.4
CCN(CC)S(=O)(=O)c1ccc2c(c1)CCCN2	nt	-1.1
O=C(CN1CCOc2ccccc21)N1CCC2(CC1)OCCO2	0.72	0.3
COc1ccc(C2CC(c3cc(Cl)ccc3O)=NN2)cc1OC (stereo not given)	nt	-4.1
CC(=O)N1c2ncnn2C(c2ccc(Cl)cc2)CC1c1ccccc1 (stereo not given)	-0.5	-2.3
Nc1nc(N)nc(CSc2nnc(-c3ccccc3)n2-c2ccc(F)cc2)n1	nt	1.6
COc1ccc(Br)cc1CN1CCN(C2CCCCCC2)CC1	0.37	1.4
C=CCn1c(=O)/c(=C\c2ccccn2)s/c1=C(/C#N)C(=O)NCC1CCCO1 (stereo not given)	nt	3.2
O=C(CCC(=O)N1CCSc2ccccc21)NCc1cccs1	-0.15	-2.3
CC(=O)[C@@]1(O)CCC2C3C[C@H](C)C4=CC(=O)C=CC4(C)[C@@]3(F)[C@@H](O)C[C@@]21C (stereo not given in full)	-1&-0.44	0.0
OCC12CC3CC(C1)CC(CO)(C3)C2	nt	-0.2
CCCn1nnnc1SCC(=O)N1CCCC1	0.13	1.1
CCc1ccccc1NC(=O)C1CCCN1S(=O)(=O)c1cccc2nsnc12 (stereo not given)	-1.5	1.8
CN=Cc1cc(-c2ccccc2)oc1S	0.71	-3.1
O=C(O)C1Cc2ccccc2N1C(=O)c1ccccc1 (stereo not given)	-0.12	-2.9
O=C(Cn1c(=O)oc2ccccc21)NCC1CCN(Cc2ccccc2F)CC1	0.022	2.1

4 entries already listed, arranged by number of heavy atoms, rising:
SMILES	KSHV LANA nucl	Ab BasE inh
CN=Cc1cc(-c2ccccc2)oc1S	0.71	-3.1
O=C(O)c1ccc(N2C(=O)CSC2=S)cc1	nt	-0.4
O=C(COc1ccc2ccccc2c1)NC1CCC(O)CC1 (stereo not given)	nt	1.1
CCc1ccccc1NC(=O)C1CCCN1S(=O)(=O)c1cccc2nsnc12 (stereo not given)	-1.5	1.8

(next part)
SMILES	KSHV LANA nucl	Ab BasE inh
O=C(ON1C(=O)c2ccccc2C1=O)c1ccco1	nt	-1.4
CC(C)Cc1cc(C(=O)O)nc(=O)[nH]1	0.89	-2.6
NC(N)=Nc1nc(=O)c2ccccc2s1	nt	-0.3
c1ccc(C2=NNC(c3nc4ccccc4[nH]3)C2)cc1 (stereo not given)	0.73	-2.8
CCNc1nc(NCC)nc(Oc2ccc(=O)[nH]n2)n1	nt	2.4
O=C(Nc1ccccc1Cl)c1ccccc1O	nt	3.1
CCSc1nc2c(c(=O)n1-c1ccc(F)cc1)SCC2	1.1	1.4
CC(=O)O[C@H]1C[C@@H]2CC[C@@H]3[C@H](CC[C@@]4(C)[C@H]3C[C@H]([N+]3(C)CCCCC3)[C@@H]4OC(C)=O)[C@@]2(C)C[C@@H]1N1CCCCC1	-0.3&-0.02	nt
CCNc1ncnc2c1cnn2C	-1.4	1.9
CC(SCC(=O)O)c1nc2ccccc2[nH]1 (stereo not given)	nt	0.4
Cc1ccc(/C=C2/C(=O)N=C(N)N2C)s1	nt	-1.4
C=CCn1c(N)cc(=O)nc1SC(C)C(=O)Nc1ccc(C)cc1 (stereo not given)	-0.24	0.4
CCOc1ccc2nc(SCC(=O)N(C)C3CCCCC3)c(C#N)cc2c1	-0.6	8.5
C=CCSc1nnc(-c2cc(OCC(F)(F)F)nc(OCC(F)(F)F)c2)n1Cc1ccco1	-0.61	-2.1
Cc1ccc(OC(=O)CCC(=O)N2CCN(C(=O)CCC(=O)Oc3ccc(C)cc3)CC2)cc1	-0.25	3.3
CN(CC(=O)Nc1ccc2[nH]c(=O)[nH]c2c1)Cc1ccccc1	nt	-1.7
C=CCN(c1ccc(C(=O)Nc2ccc3c(c2)OCO3)cc1)S(C)(=O)=O	0.037	-4.5
CCOc1ccc(NC(=O)CSCCn2c(C)csc2=O)cc1	nt	2.5
Cc1nn(C)c(C)c1NC(=O)/C(C#N)=C\N(C)C	0.57	0.7
CC1(CC(=O)N=Nc2c(O)[nH]c3ccccc23)OCCO1	-0.51	2.0
CCn1c(CN2CCCCCC2=O)n[nH]c1=S	nt	4.5
COc1c(C(=O)O)cnc2cc(Cl)ccc12	-0.063	-0.1
O=C(CSC1CCS(=O)(=O)C1)OCc1c(Cl)cccc1Cl (stereo not given)	nt	-3.5
CCOC(=O)c1ccc2nc(CCC(=O)NC3CCC(C)CC3)c(=O)n(CC)c2c1 (stereo not given)	nt	2.1

Exported with bars between the fields: 5 of the compounds above.
Molecule | KSHV LANA nucl | Ab BasE inh
C=CCN(c1ccc(C(=O)Nc2ccc3c(c2)OCO3)cc1)S(C)(=O)=O | 0.037 | -4.5
CCOc1ccc(NC(=O)CSCCn2c(C)csc2=O)cc1 | nt | 2.5
Cc1nn(C)c(C)c1NC(=O)/C(C#N)=C\N(C)C | 0.57 | 0.7
CC1(CC(=O)N=Nc2c(O)[nH]c3ccccc23)OCCO1 | -0.51 | 2.0
CCn1c(CN2CCCCCC2=O)n[nH]c1=S | nt | 4.5

(continued)
SMILES	KSHV LANA nucl	Ab BasE inh
COc1ccc(Br)c(-c2nnc(CS(=O)(=O)c3ccccc3)o2)c1	0.14	2.7
O=C(Cc1csc2nc(-c3ccccc3)cn12)N1CCc2ccccc21	-0.62	0.1
C(=N\c1ncn[nH]1)/c1ccccc1	0.39	0.6
O=C(CCS(=O)(=O)c1ccccc1)N1CCN(c2ccccc2)CC1	-1.5	0.8
CCNS(=O)(=O)c1cccc2c(N)cccc12	nt	-1.7
Cc1ccccc1-c1ncc(-c2ccc(Br)cc2)o1	nt	1.7
O=S(=O)(NC1CCc2ccccc21)c1ccc(-n2cnnn2)cc1 (stereo not given)	-0.64	0.9
Cc1nc(CCNC(=O)CC2CCCCC2)cs1	2	-2.7
NC(=O)COC(=O)C(c1ccccc1)c1ccccc1	0.099	0.6
Cc1ccccc1C(=O)N/N=C1/SCC(=O)N1Cc1ccc2c(c1)OCO2	-0.63	4.1
Cc1ccc(S(=O)(=O)N2CCC(C(=O)N/N=C/c3ccccn3)CC2)cc1	0.31	-3.5
Cc1nn(-c2ccccc2)nc1-c1nnc(-c2ccc(Cl)c(Cl)c2)o1	nt	1.0
Cc1nc(C(F)(F)F)nc(NNC(=O)Nc2ccccc2)c1C	-0.45	4.0
O=C(/C=C/NCc1ccccc1)c1cccs1	-0.38	0.5
CC(C)C(NS(=O)(=O)c1ccc2c(c1)Cc1cc(S(=O)(=O)NC(C(=O)O)C(C)C)ccc1-2)C(=O)O (stereo not given)	-1.4	3.8
CCOC(=O)C1=C(Cn2ccc(C(F)(F)F)n2)NC(=O)NC1c1cc(C)ccc1C (stereo not given)	0.42	1.1
C=CCN(Cc1cccs1)C(=O)Cn1c(=O)cnc2ccccc21	nt	0.1
N#Cc1ccsc1NC(=O)COC(=O)/C=C/c1cn(Cc2ccccc2)nc1-c1cccs1	nt	-37
CN1C(=O)SC(Cc2ccc(C#N)cc2)C1=O (stereo not given)	-1.3	nt
CC(Cc1c[nH]c2ccccc12)NC(N)=O (stereo not given)	nt	0.7
Cc1ccc(C)c(OCCn2cc(/C=C3\C(=N)N4N=C(S(C)(=O)=O)SC4=NC3=O)c3ccccc32)c1	-0.034	7.5
COC(=O)c1cc(=O)c2cc(NC(=O)c3ccc(OC(F)(F)F)cc3)ccc2[nH]1	nt	2.2
COc1ccc(S(=O)(=O)N2CCCC(C(=O)NC(C)C)C2)cc1OC (stereo not given)	0.028	-1.2
Cc1cc(C)n(CCCNc2nc(-c3cccnc3)nc3ccccc23)n1	nt	-0.7

Next section (five carried over from the part before).
SMILES	KSHV LANA nucl	Ab BasE inh
CC(Cc1c[nH]c2ccccc12)NC(N)=O (stereo not given)	nt	0.7
Cc1ccc(C)c(OCCn2cc(/C=C3\C(=N)N4N=C(S(C)(=O)=O)SC4=NC3=O)c3ccccc32)c1	-0.034	7.5
COC(=O)c1cc(=O)c2cc(NC(=O)c3ccc(OC(F)(F)F)cc3)ccc2[nH]1	nt	2.2
COc1ccc(S(=O)(=O)N2CCCC(C(=O)NC(C)C)C2)cc1OC (stereo not given)	0.028	-1.2
Cc1cc(C)n(CCCNc2nc(-c3cccnc3)nc3ccccc23)n1	nt	-0.7
O=C(Cn1cnc2c(oc3ccccc32)c1=O)OCc1cc(F)cc2c1OC(c1ccsc1)OC2 (stereo not given)	nt	2.3
CC1CCCCC1NC(=O)COn1nnc2ccc(Cl)cc21 (stereo not given)	nt	5.0
Cn1cnnc1SCC(=O)Nc1ccccc1C(=O)Nc1ccc2c(c1)OCO2	nt	-4.2
CCCNC(=O)C(C)N1Cc2ccccc2C1=O (stereo not given)	0.29	-1.6
COc1nc(OC)nc(N2CCN(c3cc(C)ccc3C)CC2)n1	-1.2	-0.2
Cc1ccc(SCC(=O)NC(=O)C(C)C)cc1C	nt	0.4
COc1nc(C)nc(/N=C\NO)n1	0.31	0.1
O=C(c1cnn(C(=O)CCN2CCN(c3ccccc3)CC2)c1)c1ccccc1O	nt	1.8
O=C1NC(=O)C(Nc2cccc3ccccc23)S1 (stereo not given)	-0.94	0.5
CCc1ccc(C(=O)NCCc2nnc(SC)n2CC)cc1	-0.5	0.3
